Screens: PubChem BioAssay, several laboratories
Mtb hypoxia rep – inhibitors of hypoxia-regulated fluorescent reporter in Mycobacterium tuberculosis. M. tuberculosis hypoxia-regulated fluorescent reporter, fluorescence. AID 1159583. fluorescence inhibition, % (no concentration beside the values). 300,000 compounds, 0.1% hits;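 active means 35 to 45% if threefold the growth effect, above 45% if 1.5-fold the growth effect; inactive means the rest, general growth blockers included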;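 further: wells of about 50 µL received 100 nL stock; 0% = vehicle wells and 100% = reference inhibitor wells; whole bacteria with a GFP reporter of the hypoxia response; strong numbers were not always called active; many hits fall short of the cut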
Sa RN4220 lethal – kills Staphylococcus aureus RN4220; S. aureus RN4220 growth, OD600, 16 h; inhibition, % (test concentration not listed); 330,000 compounds, 0.33% hits;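 active means z-score of -3 or lower and OD600 up to 0.18 on both plates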;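 further: plate controls were untreated cells for no effect and reference antibiotic for full effect; stock transfer was 100 nL into about 80 µL; one replicate is shown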
BJeLR lethal – kills HRASV12-expressing BJeLR cells; BJeLR (HRASV12) viability, CellTiter-Glo ATP luminescence, 48 h; reference of the scale not given here; AID 1554; 300,000 compounds, 0.17% hits; inhibition, % (test concentration not listed);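 active means replicate mean above 50%; inconclusive means above 50% but judged a plate artefact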;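 further: 50 nL library stock added to about 25 µL; numbers are from one replicate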
Autofluor counter – flagged as autofluorescent in microsphere protease counterscreen. compound autofluorescence counterscreen, microsphere flow cytometry; hits give high values. fluorescence intensity (test concentration not listed). 360,000 compounds, 3.1% hits. AID 624483;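 active means at least 3 SD above the mean of all compounds, about 16000 in these data; inconclusive means too few beads counted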;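 further: 100 nL of 1 mM stock went into each well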
ugtP null kill – compounds lethal to S. aureus RN4220 ugtP deletion mutant | growth inhibition, % (no concentration beside the values) | 330,000 compounds, 0.54% hits | OD600 growth, 16 h; some inactives read as strong as hits;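 active means z-score under -3 and OD600 up to 0.15 on both plates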;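 further: plate controls were untreated wells for no effect and antibiotic for full effect; wells of about 80 µL received 100 nL stock; the first replicate is given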
PrP UTR inh – inhibition of PrP 5' UTR reporter expression; cell-based PrP 5' UTR mRNA reporter, plate reader; inhibition, % (concentration not given with the values); 340,000 compounds, 0.35% hits;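 active means every replicate at 50% or more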;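 further: 0 = median of the neutral control wells; tested in H4 reporter cells; numbers are from one replicate; inactives centre near -14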
Mtb hypoxia rep growth – second read-out of Mtb hypoxia rep, no call of its own (marks repeat the call); growth inhibition, %; measured here: M. tuberculosis growth (absorbance);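 0% = vehicle and 100% = reference antibiotic; read after six days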
The depositor's hits bear a star; ? = inconclusive; . = not tested or not shown; & = joins results of further samples.

# | SMILES | Mtb hypoxia rep | Mtb hypoxia rep growth | Sa RN4220 lethal | BJeLR lethal | Autofluor counter | ugtP null kill | PrP UTR inh
1 | O=C(O)c1ccc(-c2nnc(-c3cccc(Br)c3)o2)cc1 | -7 | 8 | 11 | 8 | 4192 | 1 | -85
2 | COc1ccccc1C(=O)NCCC(=O)Nc1ccc(S(=O)(=O)N2CC(C)CC(C)C2)cc1 (configuration not stated) | -5 | 11 | 1.4 | . | 3962 | -3 | -11
3 | CC(C)OCCCN(CC(O)c1ccccc1)CC(O)c1ccccc1 (configuration not stated) | 4 | 5 | 2.2 | 10 | 2030 | -4 | -19
4 | Cc1c(CC(=O)N[C@@H](C)C(=O)O)c(=O)oc2cc3c(cc12)CCC(C)(C)O3 | 10 | -1 | 3.1 | 1 | 3001 | 15 | -15
5 | Cn1c(N)c(C(=O)COC(=O)CNS(=O)(=O)c2cccc(Cl)c2)c(=O)n(C)c1=O | 3 | -9 | -1.3 | 5 | 2071 | 1 | -21
6 | Cc1cc(C(=O)N/N=C/c2ccc(-c3cccc(Cl)c3Cl)o2)n[nH]1 | . | . | . | -7 | 2124 | . | 2
7 | COc1ccc(-n2c(Cc3cc(=O)[nH]c(=O)[nH]3)nnc2SCC(=O)Nc2ccccc2)cc1 | . | . | -0.2 | 6 | 4616 | 5 | 57*
8 | COc1ccc(CN2CCCCCC2)cc1 | 14 | 13 | 5.1 | 4 | 3388 | 17 | -9
9 | CCCn1nc(Oc2nc(NC(C)C)nc(N(C)C)n2)ccc1=O | 3 | 3 | 8.6 | -9 | 2566 | 3 | -7
10 | Cc1cc2n(n1)C(c1ccc3c(c1)OCO3)Nc1c(C)cccc1-2 (configuration not stated) | 4 | 13 | 5.8 | -2 | ? | 3 | -14
11 | c1ccc(CC2CCCCN2)cc1 (configuration not stated) | 13 | -7 | -1.3 | 16 | 3198 | 2 | -17
12 | Cc1cc(C(=O)COC(=O)C23CC4CC(CC(O)(C4)C2)C3)c(C)n1-c1c(C)n(C)n(-c2ccccc2)c1=O | 8 | 14 | 16 | 1 | 5073 | 6 | -27
13 | C=CCn1c(=O)/c(=C/c2ccc(C)o2)s/c1=C(/C#N)C(=O)c1ccccc1 | . | . | . | -9 | 6604 | . | 0
14 | C=CCNC(=O)C1CC(=O)N(c2ccc(OCC(=O)Nc3ccccc3)cc2)C1 (configuration not stated) | 2 | -2 | 5.9 | -9 | 8779 | 3 | -23
15 | O=C(Cn1cnc2ccccc21)Nc1ccccc1-c1ccccc1 | 1 | -7 | 0.2 | 1 | 3781 | 0 | -1
16 | CCOc1cc(C=NNC(=O)c2ccc(=O)n(C)c2)ccc1O | 7 | 7 | 1.5 | . | . | 12 | .
17 | CCOC(=O)c1c[nH]c2nc(C)ccc2c1=O | 7 | 5 | 3.3 | 0 | 4166 | 14 | -8
18 | CN(C)c1ccc(P(=O)(COc2ccc([N+](=O)[O-])cc2)c2ccc(N(C)C)cc2)cc1 | -7 | 7 | -3.7 | 18 | 4350 | -4 | .
19 | c1cncc(-c2csc(-c3cccnc3)n2)c1 | 3 | 9 | 5.0 | 0 | 3831 | 18 | -25
20 | CN(C)C(=O)c1ccc(Cl)cc1[N+](=O)[O-] | 15 | 10 | 1.5 | 2 | 6540 | 2 | 40
21 | O=C1CC(C(=O)Nc2ccc(Br)cc2)S/C(=N\N=Cc2ccco2)N1 (configuration not stated) | -8 | 7 | -1.0 | . | . | -1 | .
22 | O=C(CSc1nc2ccccc2c(=O)n1CCCC(=O)N1CCCC1)NCc1ccco1 | 4 | 9 | 1.5 | -1 | 23337* | -7 | 3
23 | CCn1ncc(Br)c1C(=O)Nc1ncc(C)s1 | 2 | 10 | 1.8 | 6 | 4213 | 4 | -7
24 | CC(C)n1c(SCC(=O)NCc2ccco2)nnc1C1CC1 | -1 | 7 | -0.6 | 5 | 5948 | -2 | -11
25 | CSc1cccc(NC(=S)N2CCC(N(C)C(C)C)CC2)c1 | -2 | 8 | -0.2 | -2 | 4406 | 1 | -45
26 | Cc1ccc(NC(=O)CC(C)c2ccccc2)cc1S(=O)(=O)N1CCOCC1 (configuration not stated) | 2 | 9 | -2.2 | . | 3701 | 1 | -16
27 | COC(=O)[C@H](CCSC)NC(=O)Nc1ccc(OC)cc1OC | 3 | -2 | 0.3 | -18 | 11936 | 6 | -8
28 | COc1ccc(NS(=O)(=O)Cc2ccccc2Cl)cn1 | -2 | -1 | -0.4 | 9 | 23973* | -5 | -17
29 | COCc1cc(C)nc(NC2CCCCC2)c1C#N | 13 | 20 | 0.8 | . | 4109 | 4 | -14
30 | O=C(Nc1nc(-c2ccc(F)c(F)c2)cs1)c1ccc(OCC2CCCO2)cc1 (configuration not stated) | 10 | -2 | 5.9 | 11 | 2142 | -7 | -30
31 | CCn1c(CNS(=O)(=O)c2ccc(Br)cc2)n[nH]c1=S | -8 | 6 | 0.3 | 14 | 6115 | 2 | -9
32 | CC(=O)N1CCc2cc(S(=O)(=O)NCCC(=O)NC3CCCc4ccccc43)ccc21 (configuration not stated) | . | . | 0.9 | -3 | 4466 | 0 | -4
33 | COc1ccc(NC(=O)C23CCC(C)(C(=O)C2)C3(C)C)cc1 (configuration not stated) | 12 | 5 | 4.9 | 0 | 3045 | 4 | -18
34 | COc1ccc(C(=O)OCC(=O)NC2CC2)cc1S(=O)(=O)N1CCOCC1 | 9 | 2 | 3.7 | 4 | 4236 | 1 | -6
35 | O=C(NNc1nc(N2CCOCC2)nc(N2CCOCC2)n1)Nc1ccc(Cl)cc1 | 9 | 0 | 2.3 | -7 | . | 3 | .
36 | COc1ccccc1NC(=O)C1CCN(c2ncnc3c2nc2n3CCCCC2)CC1 | 1 | -3 | 0.0 | 4 | 4447 | 3 | -10
37 | Cc1ccc(-c2csc3ncnc(Nc4ccc(C(=O)O)cc4)c23)cc1 | 11 | 5 | 14 | 9 | 3357 | 21 | .
38 | O=[N+]([O-])c1ccc(C[n+]2cccc3ccccc32)cc1 | 14 | 8 | 0.7 | 3 | 11618 | 0 | -6
39 | COc1ccc(-c2cc(-c3ccccc3)nc(-c3ccc4c(c3)NC(=O)CO4)c2)cc1 | 12 | 5 | 3.1 | -13 | 19614* | 5 | 0
40 | CC1CC(C)CN(C(=O)Cn2c(=O)n(CCCCC(=O)NC3CCCC3)c(=O)c3ccccc32)C1 (configuration not stated) | . | . | -5.8 | 2 | 3620 | 5 | -12
41 | O=C1/C(=C/c2ccc(F)cc2)SC(=S)N1N1CCOCC1 | 8 | 0 | -2.1 | 3 | 3474 | 2 | -13
42 | COc1ccccc1CN(CC(=O)NCc1ccc(F)cc1)C(=O)c1csnn1 | . | . | . | 3 | 3810 | . | -33
43 | Cc1cccc(Nc2nc(N)c([N+](=O)[O-])c(N3CCC(C)CC3)n2)c1 | 15 | 9 | -0.3 | 2 | 6975 | 25 | -9
44 | O=C(Nc1cccc2ccccc12)N1CC=C(c2ccccc2)CC1 | 10 | 11 | 4.4 | -5 | 4321 | 3 | -12
45 | CNC(=O)c1ccsc1NC(=O)c1sc2ccccc2c1Cl | . | . | . | 5 | 5278 | . | -71
46 | C=CCS(=O)(=O)c1cccc2cccnc12 | 7 | 10 | 3.0 | 1 | 3470 | -4 | -5
47 | CC1(C(=O)NC2CCCC2)CCC(=O)N1Cc1ccccc1 (configuration not stated) | 2 | -6 | 0.2 | -7 | 23334* | 1 | -40
48 | O=C(O)CCn1cnc2ccccc2c1=O | 2 | 9 | -14 | -4 | 3285 | 0 | 17
49 | Cc1ccc(C(=O)Nc2cccc(C(F)(F)F)c2)cc1Nc1ccccn1 | 12 | 7 | 7.4 | 3 | 4099 | 3 | -5
50 | Cc1ccc(-c2csc3nnc(SCC(=O)N4CCN(Cc5ccccc5)CC4)n23)cc1 | -1 | -4 | 3.2 | -8 | 9755 | 1 | -36
51 | CC(C)NC(=O)NC(=O)CSc1ccccc1F | 15 | 3 | 4.6 | 1 | 2561 | -1 | -3
52 | CCN(CC)S(=O)(=O)c1ccc2oc(C(=O)NC3CCCc4ccccc43)c(C)c2c1 (configuration not stated) | -4 | -1 | -4.6 | 1 | 10572 | -13 | -14
53 | COc1ccc(C(=O)NC(=S)Nc2cccnc2)cc1OC | 9 | 7 | 6.3 | 4 | 3721 | 5 | -4
54 | O=C(Nc1ccc(NC(=O)c2cccs2)c(Cl)c1)c1ccco1 | -3 | 4 | 0.0 | -2 | 2204 | -8 | -8
55 | COc1ccccc1N(CC(O)CN1CCCCC1)S(=O)(=O)c1ccc(C)cc1 (configuration not stated) | 7 | 2 | 1.9 | 3 | 4186 | 0 | -26
56 | CCN(C[C@H]1N[C@@](CC)(C(=O)OC)[C@H]2C(=O)N(C)C(=O)[C@@H]12)C(=O)Nc1ccc(C)cc1 | -6 | -3 | -0.5 | . | 2845 | 1 | -5
57 | O=C(Nc1ccc(N2CCN(Cc3ccccc3)CC2)cc1)c1ncn[nH]1 | 1 | 6 | 1.4 | -6 | 23010* | 0 | 4
58 | O=C(O)C1C(c2ccccc2)C(C(=O)OCc2ccco2)C1c1ccccc1 (configuration not stated) | 7 | 15 | 8.6 | 2 | 23151* | -8 | -12
59 | Cc1ccccc1NC(=O)CSCc1cc(=O)n2ccsc2n1 | 9 | 4 | 2.7 | 8 | 5538 | 7 | -20
60 | CCCC(=O)OCCNc1cc(Sc2nc3ccccc3[nH]2)c2nonc2c1[N+](=O)[O-] | . | . | 96* | -3 | 2077 | 100* | -3

Next entries.
# | SMILES | Mtb hypoxia rep | Mtb hypoxia rep growth | Sa RN4220 lethal | BJeLR lethal | Autofluor counter | ugtP null kill | PrP UTR inh
61 | Cc1ccc(OCc2ccc(C(=O)O)o2)c([N+](=O)[O-])c1 | . | . | . | -6 | 2551 | . | -16
62 | CCOC(=O)Cc1cc(=O)c2cc(C)ccc2[nH]1 | 2 | 3 | 2.0 | 7 | 3957 | 6 | -12
63 | Cc1ccc(/C=C/C(=O)N2CCCC(C)C2)cc1 (configuration not stated) | 2 | -5 | 0.7 | -13 | 2399 | -7 | -56
64 | CC1CC[C@@]2(O1)OC(CCO)CC(O)C2O (some centres not stated) | 5&8&3&4&3&9&10&6 | 3&11&2&9&2&9&9&5 | 8.9&4.3&4.2&5.2&2.6&1.1&5.7&7.8 | . | . | 4&2&5&-2&-1&8&-2&4 | .
65 | CN(c1ccccc1)S(=O)(=O)c1cccc(C(=O)NNC(=O)c2ccncc2)c1 | 4 | 10 | 6.8 | -14 | ? | 11 | -25

Entries listed so far that have an NH in an aromatic ring:
# | SMILES | Mtb hypoxia rep | Mtb hypoxia rep growth | Sa RN4220 lethal | BJeLR lethal | Autofluor counter | ugtP null kill | PrP UTR inh
6 | Cc1cc(C(=O)N/N=C/c2ccc(-c3cccc(Cl)c3Cl)o2)n[nH]1 | . | . | . | -7 | 2124 | . | 2
7 | COc1ccc(-n2c(Cc3cc(=O)[nH]c(=O)[nH]3)nnc2SCC(=O)Nc2ccccc2)cc1 | . | . | -0.2 | 6 | 4616 | 5 | 57*
17 | CCOC(=O)c1c[nH]c2nc(C)ccc2c1=O | 7 | 5 | 3.3 | 0 | 4166 | 14 | -8
31 | CCn1c(CNS(=O)(=O)c2ccc(Br)cc2)n[nH]c1=S | -8 | 6 | 0.3 | 14 | 6115 | 2 | -9
57 | O=C(Nc1ccc(N2CCN(Cc3ccccc3)CC2)cc1)c1ncn[nH]1 | 1 | 6 | 1.4 | -6 | 23010* | 0 | 4
60 | CCCC(=O)OCCNc1cc(Sc2nc3ccccc3[nH]2)c2nonc2c1[N+](=O)[O-] | . | . | 96* | -3 | 2077 | 100* | -3
62 | CCOC(=O)Cc1cc(=O)c2cc(C)ccc2[nH]1 | 2 | 3 | 2.0 | 7 | 3957 | 6 | -12

Results in ugtP null kill and BJeLR lethal, for some of the entries so far:
No.	SMILES	ugtP null kill	BJeLR lethal
64	CC1CC[C@@]2(O1)OC(CCO)CC(O)C2O (some centres not stated)	4&2&5&-2&-1&8&-2&4	.
65	CN(c1ccccc1)S(=O)(=O)c1cccc(C(=O)NNC(=O)c2ccncc2)c1	11	-14
